Polio RdRp inh = inhibitors of poliovirus RNA polymerase binding and polymerization; % elongation, % (compound at 16.7 µg/mL); P03300; hit rate 0.66% among 150,000; AID 588519; poliovirus polymerase elongation, fluorescence polarization; stronger effect = lower value; in the data active = % elongation below about 90%; note: some results filed as inactive read as strong as hits
Target sequence (P03300 1749-2209 limits assumed): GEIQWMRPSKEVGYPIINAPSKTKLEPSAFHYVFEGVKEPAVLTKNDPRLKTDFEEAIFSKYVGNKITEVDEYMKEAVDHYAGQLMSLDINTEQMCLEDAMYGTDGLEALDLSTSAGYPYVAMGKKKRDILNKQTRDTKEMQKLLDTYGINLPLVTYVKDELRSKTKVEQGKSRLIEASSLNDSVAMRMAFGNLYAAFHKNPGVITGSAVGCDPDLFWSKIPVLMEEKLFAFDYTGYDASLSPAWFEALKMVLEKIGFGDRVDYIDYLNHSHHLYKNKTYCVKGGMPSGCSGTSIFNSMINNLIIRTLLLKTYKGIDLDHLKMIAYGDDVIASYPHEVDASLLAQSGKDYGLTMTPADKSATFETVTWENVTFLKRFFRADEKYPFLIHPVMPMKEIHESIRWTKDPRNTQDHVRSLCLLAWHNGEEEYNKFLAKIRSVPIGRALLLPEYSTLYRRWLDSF
MenB inh = Mtb MenB enzyme inhibition | inhibition, %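 (about 12 µg/mL by stock and volumes)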 | P9WNP5 | MenB enzyme assay, absorbance read-out; some hits fall short of the stated cut | hit rate 0.43% among 100,000 | AID 540299;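 active = mean of two replicates above 30%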;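 note: 0% = no compound and 100% = wells with inactive enzyme; the first replicate is given; strong numbers were not always called active; inactives centre near -10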
Mtb MbtI inh = inhibitors of Mycobacterium tuberculosis siderophore enzyme MbtI; P9WFX0; purified MbtI enzyme, fluorescence intensity read-out; inhibition, %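 (about 17 µg/mL by stock and volumes)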; hit rate 0.89% among 100,000;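 active = above 50% in both replicates, above 80% if mildly self-fluorescent; inactive = the rest, strongly fluorescent compounds included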;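 note: 0% = mean of negative and 100% = mean of positive controls; one replicate is shown; some compounds called inactive have numbers as strong as hits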
Target sequence (P9WFX0 whole entry, looked up): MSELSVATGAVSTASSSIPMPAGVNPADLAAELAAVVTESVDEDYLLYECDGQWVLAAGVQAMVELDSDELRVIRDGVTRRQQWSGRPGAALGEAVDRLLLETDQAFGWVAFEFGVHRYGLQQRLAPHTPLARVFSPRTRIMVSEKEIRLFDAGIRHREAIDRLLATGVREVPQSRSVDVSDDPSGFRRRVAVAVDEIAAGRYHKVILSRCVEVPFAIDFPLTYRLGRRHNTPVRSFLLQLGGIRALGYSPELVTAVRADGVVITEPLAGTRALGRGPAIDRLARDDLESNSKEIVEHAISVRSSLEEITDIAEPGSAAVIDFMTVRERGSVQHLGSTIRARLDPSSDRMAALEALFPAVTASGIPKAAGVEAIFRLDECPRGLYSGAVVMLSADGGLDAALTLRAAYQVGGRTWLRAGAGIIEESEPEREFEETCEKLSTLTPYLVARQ
Polio RdRp inh intensity = recorded beside Polio RdRp inh, whose call it bears; % elongation; measured here: total intensity read-out; formula for this scale not given here;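 total fluorescence in place of polarization; lower means less elongation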
An asterisk follows results filed as active; i = inactive; / = not tested or not shown; & = joins results of further samples.

SMILES | Polio RdRp inh | Polio RdRp inh intensity | MenB inh | Mtb MbtI inh
COC(=O)C1=C(C)NC2=C(C(=O)CC(c3ccc(Cl)cc3)C2)C1c1ccccc1 (configuration not stated) | 104 | 107 | -41 | 1
CCc1ccc(NC(=O)CSC)cc1 | 102 | 106 | -25 | 6
O=C(Nc1ccc(Cl)cc1)C1CCCCC1 | 105 | 101 | -31 | -14
CCOC(=O)CCn1cc(/C=C(\C#N)C(N)=S)c(-c2ccccc2)n1 | 89* | 95* | -53 | 51
CCCN(CCC)C(=O)c1cnn(-c2ccccc2)c1NC(=O)c1ccccc1 | 116 | 120 | -34 | /
COc1ccccc1C(=O)Nc1ccccc1-c1nnn(CC(=O)N2CCN(c3ccc(F)cc3)CC2)n1 | 102 | 102 | -27 | -6
Nc1c(NCC(c2ccco2)N2CCCCC2)c(=O)[nH]c(=O)n1Cc1ccccc1 (configuration not stated) | 108 | 113 | -7 | -15
C/C(c1cccs1)=[N+](/[O-])C(C)/C(=N/O)c1ccco1 (configuration not stated) | 99 | 101 | 5 | 15
Cc1cccc(N2CCN(C(=O)Cc3ccc(-n4c(=O)[nH]c5ccsc5c4=O)cc3)CC2)c1C | 102 | 104 | -17 | -11
CC1(C)Oc2ccc(C(=O)N/N=C/c3cccs3)cc2NC1=O | 104 | 103 | -6 | 20
CCCCn1c(-c2cccc(Br)c2)nc2ccccc21 | 100 | 103 | -18 | 15
Cc1ccc(NC(=O)CCn2c(=O)c3cccn3c3ccccc32)cc1 | 102 | 104 | -21 | 5
CC(NC(=O)c1ccc(F)cc1)C(c1cccs1)N1CCN(C)CC1 (configuration not stated) | 99 | 95 | -7 | 0
Fc1cccc(-c2cc3nc4c(c(NCCCN5CCOCC5)n3n2)CCCC4)c1 | 104 | 106 | -41 | 27
O=C(Nc1ncn[nH]1)c1cccc(Br)c1 | 99 | 102 | -4 | -11
CCOc1ccc(NC(=O)c2ccc3c(c2)S(=O)(=O)N=C2CCCCCN23)cc1 | 103 | 99 | -9 | -32
CCc1ccc(NC(=O)c2nn(-c3ccc(C)cc3)c(=O)c3c2c2ccccc2n3C)cc1 | 102 | 106 | -20 | -1
O=C(NCCCO)c1cc2sc3ccccc3c2s1 | 99 | 103 | 26 | 41
CN1CCN(c2ccccc2NS(=O)(=O)c2ccc3c(c2)SCC(=O)N3)CC1 | 103 | 101 | -11 | -2
CCCCc1c(O)nc(SCC(=O)N2CCCCC2)[nH]c1=O | 102 | 105 | -3 | 2
CCC1Sc2cc(S(=O)(=O)CCC(=O)N3CCCCC3)ccc2NC1=O (configuration not stated) | 104 | 106 | -15 | 0
O=S1(=O)N=CNc2ccc(S(=O)(=O)Nc3ccccc3)cc21 | 101 | 101 | -5 | -3
Cc1oc(-c2ccccc2)nc1C(=O)O | 100 | 104 | -11 | 20
CCN(CC)c1ccc2cc(-c3csc(C)n3)c(=O)oc2c1 | 44 | 236 | -56 | -30
CCc1nnc(NC(=O)CCCSc2ccccc2)s1 | 108 | 111 | -9 | -4
(continued)
SMILES | Polio RdRp inh | Polio RdRp inh intensity | MenB inh | Mtb MbtI inh
COc1ccc(N2CC(NC(=O)NCc3ccc4c(c3)OCO4)CC2=O)cc1OC (configuration not stated) | 100 | 106 | 13 | 16
CCOC(=O)C1CCN(Cc2cc(=O)n3c(-c4ccccc4)csc3n2)CC1 | 113 | 121 | 6 | -12
Cc1cc(C)nc(C#N)n1 | 102 | 101 | -25 | -14
COC(=O)c1cc2c(=O)n3ccccc3nc2n(CCN2CCOCC2)c1=N | 103 | 107 | -59 | 89
COc1ccc(N2CCN(C(=O)c3oc4ccc(Br)cc4c3C)CC2)cc1 | 101 | 110 | -12 | -3
Cn1cc(S(=O)(=O)N2CCCC2)cc1C(=O)N1CCCc2ccccc21 | 105 | 107 | -14 | -11
COC(=O)[C@H](C)NC(=O)Cc1cccc2ccccc12 | 102 | 102 | 5 | -2
CC1=C(C(=O)OC(C)C)C2(O)C(=O)c3ccccc3C2(O)N1 (configuration not stated) | 95 | 89 | -62 | 16
CC(C)(C)C1CCc2c(sc(N)c2C(N)=O)C1 (configuration not stated) | 100 | 111 | -11 | /
O=C(COC(=O)c1cc(Br)ccc1O)c1ccc(F)cc1 | 100 | 97 | / | -6
CCOC(=O)Cc1nnc2c3ccccc3n(C)c2n1 | 99 | 101 | 20 | -2
Cc1c(C(=O)Nc2ccc(F)cc2)cnn1-c1ccc(F)cc1 | 102 | 98 | 7 | 3
O=C(CC(c1ccccc1)C1CCCCC1=O)c1ccco1 (configuration not stated) | 101 | 101 | -7 | 0
CCOC(=O)CNc1c(-c2ccc(OC)cc2)nc2ccc(Cl)cn12 | 102 | 104 | -60 | -51
CCCCNC(=O)C1(O)c2ccccc2NC(=O)N1c1ccccc1 (configuration not stated) | 100 | 101 | 13 | 2
CC(C)NC(=O)CSc1nnc2sc3ccccc3n12 | 102 | 103 | 12 | -4
COc1ccc2c(c1)[C@]13CCCC[C@H]1[C@H](C2)N(C)CC3 | 100 | 101 | 12 | -13
CCc1ccc2[nH]cc(S(=O)(=O)c3ccccc3)c(=O)c2c1 | 103 | 106 | -11 | 16
CCc1nnc2sc(-c3ccccc3N)nn12 | 101 | 100 | 18 | 3
COc1ccc2oc(-c3cccc(F)c3)cc(=O)c2c1 | 99 | 102 | -22 | -6
CCOC(=O)CSc1nc(=O)cc(N)n1Cc1ccc(F)cc1 | 100 | 102 | 9 | -6
COc1ccc(C(c2cc3c(cc2O)OCO3)N2CCOCC2)cc1 (configuration not stated) | 100 | 106 | -5 | /
CCN1CCN(c2ccc(N=Cc3ccc(N(C)C)cc3)cc2)CC1 | 106 | 98 | -22 | -8
CN1CCCN(C(=O)Cc2c(Cl)cccc2Cl)c2nc3ccccc3nc21 | 101 | 102 | -36 | -18
Cc1ccc2nc(SCC(=O)Nc3ccccc3)[nH]c2c1 | 103 | 93 | / | -1
Next section.
SMILES | Polio RdRp inh | Polio RdRp inh intensity | MenB inh | Mtb MbtI inh
CCCCn1c(CNc2ccc(C)cc2)nnc1SCC(=O)OC | 101 | 103 | -3 | -4
CN(C(=O)CSc1nnc2c3ccccc3n(C)c2n1)C1CCCCC1 | 103 | 100 | -41 | 6
Cc1cc2c(N=NC(=O)Nc3ccccc3)c(O)[nH]c2cc1Br | 102 | 103 | 11 | 20
CC(=O)Oc1ccc(-c2ccc(C(=O)NCCCN3CCCC3=O)cc2)cc1 | 101 | 106 | / | -7
CCOc1ccc(CC2(CCc3ccncc3)C(=O)NC(=O)NC2=O)cc1 | 99 | 99 | 12 | -3
O=c1[nH]c(SC/C=C/c2ccccc2)nc2sc3c(c12)CCC3 | 103 | 107 | 2 | -3
Cc1c(C)c(C)c(CN2CCCC2)c(C)c1C | 98 | 101 | 7 | -2
Cc1sc2c(c1C)c(=O)nc1n2Cc2ccccc2-1 | 104 | 96 | -24 | 37
O=C(CCCOc1ccccc1)Nc1nccs1 | 103 | 104 | -35 | 5
FC(F)(F)c1cccc(OCCNc2nc3ccccc3c3nc(-c4cccnc4)nn23)c1 | 103 | 107 | -11 | -11
S=c1[nH]c(=S)c2cnn(-c3ccccc3)c2[nH]1 | 102 | 102 | -50 | 14
O=C(C(NS(=O)(=O)c1cccc2nsnc12)c1ccccc1)N1CCc2ccccc21 (configuration not stated) | 102 | 94 | -20 | -8
COC(=O)C1=C(C)NC(=O)/C1=C\c1ccc(C(=O)OC)cc1 | 109 | 111 | -16 | /
CSC1=C(C#N)C(c2ccco2)C(C(=O)Nc2ccccc2C)=C(C)N1 (configuration not stated) | 106 | 102 | -21 | -14
Cc1ccc(-c2nnc(SCCC(=O)Nc3ccccc3)n2C)cc1 | 101 | 103 | -15 | -12
Cc1cc(NC2CCCCC2)nc(-c2ccccc2O)n1 | 99 | 101 | / | 93
CC(Sc1nnc(-c2c[nH]c3ccccc23)n1C1CC1)C(=O)N(C)C1(C#N)CCCCC1 (configuration not stated) | 99 | 103 | 1 | 23
NC(N)=NS(=O)(=O)c1ccc(NC(=O)c2ccco2)cc1 | 102 | 99 | -12 | -1
Cc1ccc(-c2nn(-c3ccccc3)c3[nH]c(=O)c(CNCCN4CCOCC4)cc23)cc1 | 100 | 100 | 8 | 89
CC(C)C(=O)Nc1cccc(C(=O)NCc2ccc3c(c2)OCO3)c1 | 103 | 100 | 5 | 2
Cn1c(C(=O)NCCC2=CCCCC2)cc2oc3ccccc3c21 | 102 | 104 | 0 | 119
C=CCn1c(COc2cccc(C)c2)nnc1SCC(=O)NC(C)(C#N)C(C)C (configuration not stated) | 108 | 108 | -33 | -9
CCOC(=O)C1=C(N)Oc2cc(C)oc(=O)c2C1c1ccccc1F (configuration not stated) | 101 | 106 | -29 | 1
Cc1nc2nc(C(F)(F)F)[nH]n2c(=O)c1Cc1ccccc1 | 100&100 | 103&101 | 1 | 8
CCc1ccc(Nc2nnc(SCC(=O)NC(=O)c3cccn3C)s2)cc1 | / | / | -11 | 3

Reformatted in CSV form: 3 of the compounds above
Structure,Polio RdRp inh,Polio RdRp inh intensity,MenB inh,Mtb MbtI inh
COC(=O)[C@H](C)NC(=O)Cc1cccc2ccccc12,102,102,5,-2
CC1=C(C(=O)OC(C)C)C2(O)C(=O)c3ccccc3C2(O)N1 (configuration not stated),95,89,-62,16
CC(C)(C)C1CCc2c(sc(N)c2C(N)=O)C1 (configuration not stated),100,111,-11,/

Next part:
SMILES | Polio RdRp inh | Polio RdRp inh intensity | MenB inh | Mtb MbtI inh
CCNC(=S)NCCc1ccncc1 | 103 | 101 | -8 | -6
CC(C)CC(=O)Nc1ccc(NC(=O)CC(C)C)cc1 | 100 | 103 | -9 | -10
O=c1cc(O)c2sc3nc(-c4cccs4)cc(C(F)(F)F)c3c2[nH]1 | 106 | 129 | -390 | /
S=c1[nH][nH]nc1-c1cccc(Cl)c1 | 98 | 97 | -18 | /
CN=C(Nc1cc(C)nn1-c1ccccc1)c1cccs1 | 105 | 106 | / | -12
CCc1ccc(NC(=O)CN(C2=NC3CS(=O)(=O)CC3S2)c2ccc(CC)cc2)cc1 (configuration not stated) | 101 | 96 | -3 | -3
COC(=O)C1=C(CN2CCCCC2)NC(=O)NC1c1ccccc1Cl (configuration not stated) | 103 | 102 | -56 | -2
CCc1ccc2occ(CC(=O)Nc3sc4c(c3C(=O)OC)CCCC4)c2c1 | 104 | 103 | 8 | -3
COc1cc(/C=C/C(=O)/C=C/c2ccc(N(C)C)cc2)cc(OC)c1OC | 86 | 186 | -52 | 6
OCCN(Cc1ccccc1)Cc1ccc(C(F)(F)F)cc1 | 101 | 102 | -32 | -11
CC(C(=O)c1ccc2ccccc2c1)N1CCCCC1 (configuration not stated) | 100 | 101 | -5 | i
Cc1ccc[n+](Cc2ccccc2)c1 | 106 | 108 | 4 | /
CCOc1ccc(/C=C2\NC(=S)NC2=O)cc1OC | 100 | 104 | -7 | /
NNC(=S)NCc1ccccc1 | 98 | 103 | -44 | -13
FC(F)(F)c1cccc(NCn2c(=S)oc3ccc(Cl)cc32)c1 | 100 | 91 | -6 | /
Cc1cccc(NC(=S)N(CCCNC2=CC(=O)CC(C)(C)C2)C2CCCCC2)c1 | 101 | 106 | -14 | -4
O=C(NCCCn1ccnc1)c1cc(Cl)cc(Cl)c1 | 102 | 104 | / | -1
Cc1ccc(SC(C)C(=O)NC(C)(C)C)cc1 (configuration not stated) | 101 | 104 | -2 | -22
COC(=O)c1cccc(NC(N)=S)c1 | 104 | 101 | -16 | /
NNC(=O)C1=CC(C(=O)c2cccs2)=NN(c2ccccc2)C1C(=O)NN (configuration not stated) | 50 | 245 | -27 | -2
CCOC(=O)c1cc2c(=O)n3ccccc3nc2n(Cc2ccco2)c1=NC(=O)c1ccccc1 | 101 | 102 | -45 | 115
COc1ccc(CNC(=O)C2CSC(=O)C2)cc1 (configuration not stated) | 103 | 99 | 7 | 7
CC1(C)C(=O)Nc2ccccc2N1C(=O)COC(=O)c1ccc(S(=O)(=O)C(F)F)cc1 | 105 | 112 | -13 | -11
CCCCCn1c(C)c2c(OCC)cccc(=O)c2c1C | 102 | 106 | -46 | 14
CCc1cc(-c2oncc2-c2ccc(Br)cc2)c(O)cc1OC | 101 | 102 | -5 | 1
(continued)
SMILES | Polio RdRp inh | Polio RdRp inh intensity | MenB inh | Mtb MbtI inh
Cc1ccc(CC(C#N)Sc2nccn2C)cc1 (configuration not stated) | 100 | 94 | 2 | 8
Nc1nc2c(s1)c(=O)[nH]c(=O)n2-c1ccc(Cl)cc1 | 103 | 102 | -14 | 1
CCN(CC)CCSc1nc2ccc(OC)cc2[nH]1 | 98 | 101 | 17 | 16
COc1ccc(/C=C/C(=O)Nc2cccnc2)cc1OC | 102 | 99 | / | 0
CCC1CSC(Nc2ccc(OC)cc2)=N1 (configuration not stated) | 100 | 103 | -8 | -10
COc1ccc(NCC(=O)/C(C#N)=C(\C)Nc2ccc(OC)cc2)cc1 | 97 | 98 | -18 | -3
CC(=O)N(CCN(C)C)c1nc2c(F)cccc2s1 | 101 | 101 | -15 | 4
Cc1nc2c(ccc3nc(Nc4nc5cc6c(cc5s4)OCCO6)sc32)s1 | 105 | 108 | -35 | -38

Entries of single compounds as entered above:
Nc1nc2c(s1)c(=O)[nH]c(=O)n2-c1ccc(Cl)cc1 across the screens: Polio RdRp inh = 103; Polio RdRp inh intensity = 102; MenB inh = -14; Mtb MbtI inh = 1
COc1ccc(NCC(=O)/C(C#N)=C(\C)Nc2ccc(OC)cc2)cc1 across the screens: Polio RdRp inh = 97; Polio RdRp inh intensity = 98; MenB inh = -18; Mtb MbtI inh = -3
